HIV_Env_fusion – inhibitors of HIV Env-mediated cell fusion | 1.1% of 360,000 active | inhibition, % at 12.3 µM | HeLa-JRFL Env/CEM21 cell fusion, luciferase;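 active = mean replicate inhibition score of at least 50 and every replicate individually at or above 50; inconclusive = only one of the two criteria met; inactive = mean below 50 and not all replicates reaching 50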;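 note: 0% = plate neutral controls and 100% = maraviroc near 300 nM; one replicate is shown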
UUG_fidelity – modulators of start codon recognition fidelity in yeast; S. cerevisiae UUG-firefly luciferase reporter, luminescence/redox ratio; activity score, % at 18.7 µM; 0.13% of 350,000 active; AID 602363;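 active = replicate mean at a twofold rise or more, about +100% in these data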;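 note: firefly luciferase made from a UUG start codon reports start codon fidelity; reporter light over untreated wells divided by growth signal over untreated wells; some hits fall short of that in this replicate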
* = called active by the depositor; ? = inconclusive; [ ] = dose if it differs, or a comment. Not all compounds are listed, so the mix of outcomes need not match the whole.

SMILES HIV_Env_fusion UUG_fidelity
COc1ccc(-c2ccc3c(c2)O[C@H](CN(C)Cc2cccnc2)[C@H](C)CN([C@H](C)CO)S3(=O)=O)cc1 -8[16.7_µM] -8
Cc1noc(C)c1S(=O)(=O)Nc1ccc2c(c1)C(=O)N([C@@H](C)CO)C[C@H](C)[C@H](CN(C)Cc1ccc(Cl)c(Cl)c1)O2 -4[16.7_µM] 3
C[C@H]1CCCCO[C@H](CN(C)S(C)(=O)=O)[C@@H](C)CN([C@@H](C)CO)C(=O)c2cc(NS(C)(=O)=O)ccc2O1 -11[16.7_µM] 5
C[C@H]1CN([C@@H](C)CO)S(=O)(=O)c2ccc(-c3ccccc3)cc2O[C@H]1CN(C)S(=O)(=O)c1ccccc1F 26[16.7_µM] -16
C[C@@H]1CN([C@H](C)CO)C(=O)Cc2cc(NC(=O)Nc3ccccc3)ccc2O[C@@H]1CN(C)Cc1ccncc1 9[16.7_µM] 1
CCCNC(=O)N(C)C[C@@H]1Oc2cc(-c3ccncc3)ccc2S(=O)(=O)N([C@H](C)CO)C[C@H]1C 13[16.7_µM] -8
C[C@@H]1CN([C@H](C)CO)C(=O)c2cccc(NC(=O)c3nc4ccccc4s3)c2O[C@@H]1CN(C)C(=O)Nc1ccccc1 7[16.7_µM] -8
C[C@@H]1CN([C@@H](C)CO)C(=O)c2cc(-c3cccnc3)cnc2O[C@H]1CN(C)C -13[16.7_µM] -8
C[C@@H]1CCCCO[C@@H](CN(C)S(=O)(=O)c2cccs2)[C@H](C)CN([C@H](C)CO)C(=O)c2cc(NC(=O)Nc3ccccc3)ccc2O1 17[16.7_µM] -7
Cc1ccc(S(=O)(=O)N[C@H]2CC[C@H](CC(=O)NCc3ccccc3F)O[C@@H]2CO)cc1 -3[16.7_µM] -7
C[C@@H]1CN([C@@H](C)CO)C(=O)CCCn2cc(nn2)CO[C@H]1CN(C)C(=O)Nc1cccc(C(F)(F)F)c1 -15[16.7_µM] 4
Cc1ccc(S(=O)(=O)NCC[C@@H]2CC[C@H](NC(=O)Nc3ccccc3F)[C@H](CO)O2)cc1 27[16.7_µM] 2
C[C@@H]1CN([C@@H](C)CO)C(=O)c2cc(NC(=O)c3ccncc3)ccc2O[C@@H]1CN(C)S(=O)(=O)c1ccc(F)cc1 -7[16.7_µM] 3
COc1ccc(NC(=O)N(C)C[C@H]2OCCCC[C@@H](C)Oc3ccc(NS(=O)(=O)c4ccc(Cl)cc4)cc3C(=O)N([C@H](C)CO)C[C@@H]2C)cc1 -32[16.7_µM] 3
COCCNC(=O)C[C@H]1C[C@H]2c3cc(NS(=O)(=O)c4ccc(F)cc4)ccc3O[C@H]2[C@@H](CO)O1 -12[16.7_µM] 7
C[C@@H]1CN([C@H](C)CO)C(=O)c2cc(C#Cc3ccccn3)cnc2O[C@H]1CN(C)Cc1ccncc1 -25[16.7_µM] -11
C[C@@H]1CCCCO[C@@H](CN(C)CC2CCCCC2)[C@H](C)CN([C@@H](C)CO)C(=O)c2cc(NC(=O)Nc3ccc(C(F)(F)F)cc3)ccc2O1 21[16.7_µM] 6
O=C(C[C@H]1C[C@H]2c3cc(NC(=O)Nc4ccccc4F)ccc3O[C@H]2[C@H](CO)O1)NCc1cc(F)ccc1F -14[16.7_µM] 35
O=C(C[C@@H]1CC[C@@H]2[C@H](COC[C@H](O)CN2C(=O)C2CC2)O1)NCc1ccccc1Cl -9[16.7_µM] -9
O=C(N[C@H]1CC[C@H](CC(=O)N2CCc3ccccc3C2)O[C@H]1CO)C1CCOCC1 -5[16.7_µM] -4
C[C@H](CO)N1C[C@H](C)[C@H](CN(C)C(=O)C2CCCCC2)OCCCC[C@H](C)Oc2ccc(NC(=O)Nc3ccc(C(F)(F)F)cc3)cc2C1=O 42[16.7_µM] -1
C[C@@H]1CCCCO[C@@H](CN(C)S(=O)(=O)c2ccc(Cl)cc2)[C@@H](C)CN([C@@H](C)CO)C(=O)c2cc(NC(=O)Cc3ccccc3)ccc2O1 0[16.7_µM] -6
O=C(Nc1ccc2c(c1)OCO2)N[C@H]1CC[C@@H](CCNC(=O)C2CCCCC2)O[C@@H]1CO -16[16.7_µM] -1
CN(C)CC(=O)Nc1ccc2c(c1)[C@H]1C[C@H](CC(=O)NCCN3CCCCC3)O[C@@H](CO)[C@H]1O2 19[16.7_µM] -12
C[C@H]1CN([C@@H](C)CO)C(=O)c2cc(NC(=O)Cn3cnnn3)ccc2O[C@@H]1CN(C)C(=O)Nc1ccc(F)cc1 -13[16.7_µM] 3
Remaining list, next part
SMILES HIV_Env_fusion UUG_fidelity
C[C@H]1CN([C@@H](C)CO)S(=O)(=O)c2ccc(C#CC3CC3)cc2O[C@@H]1CN(C)Cc1ccccc1 -14[16.7_µM] 15
CNC[C@H]1Oc2ccc(NS(=O)(=O)c3ccc(OC)cc3)cc2CC(=O)N([C@@H](C)CO)C[C@@H]1C 8[16.7_µM] -3
CCc1csc(N2[C@@H](C#N)[C@H](c3ccc(-c4cccc(F)c4)cc3)[C@@H]2CO)n1 23[16.7_µM] -12
C[C@@H]1CN([C@@H](C)CO)C(=O)c2cc(/C=C/c3ccccc3)cnc2O[C@@H]1CN(C)Cc1cccc(C(=O)O)c1 0[16.7_µM] 6
Cc1noc(C)c1S(=O)(=O)N(C)C[C@H]1OCCCC[C@H](C)Oc2ccc(NS(=O)(=O)c3ccc(Cl)cc3)cc2C(=O)N([C@@H](C)CO)C[C@@H]1C 33[16.7_µM] -16
CC(C)NC(=O)N(C)C[C@H]1OCCCC[C@@H](C)Oc2ccc(NC(=O)c3ccncc3)cc2C(=O)N([C@H](C)CO)C[C@H]1C 6[16.7_µM] 4
O=C(Nc1ccccc1)Nc1ccc2c(c1)[C@H]1C[C@H](CC(=O)N3CCOCC3)O[C@@H](CO)[C@H]1O2 24[16.7_µM] -14
C=C[C@@H](COC(=O)c1ccc([N+](=O)[O-])cc1)N(Cc1ccc(OC)cc1)S(=O)(=O)c1ccc(Br)cc1 2[16.7_µM] -9
COc1cccc(S(=O)(=O)N[C@@H]2CC[C@H](CC(=O)NC3Cc4ccccc4C3)O[C@@H]2CO)c1 1[16.7_µM] 1
C[C@H]1CCCCO[C@@H](CN(C)S(=O)(=O)c2ccccc2)[C@@H](C)CN([C@@H](C)CO)C(=O)c2cc(NS(=O)(=O)c3cn(C)cn3)ccc2O1 4[16.7_µM] -7
CC(=O)Nc1ccccc1-c1cn(CC(=O)N2CCOCC2)nn1 -14[16.7_µM] 127*
C[C@H]1CN([C@@H](C)CO)C(=O)Cc2cc(NC(=O)CCN3CCOCC3)ccc2O[C@@H]1CN(C)CC1CC1 -3[16.7_µM] -6
C[C@@H]1CN([C@@H](C)CO)C(=O)c2cc(Br)cnc2O[C@H]1CN(C)C(=O)c1cccnc1 -13[16.7_µM] -18
C[C@@H]1CN([C@@H](C)CO)C(=O)c2cc(NC(=O)C3CCCCC3)ccc2O[C@@H]1CN(C)C(=O)Nc1ccc(F)cc1 -5[16.7_µM] 8
C[C@H]1CN([C@@H](C)CO)C(=O)Cc2cc(NS(=O)(=O)c3cn(C)cn3)ccc2O[C@H]1CN(C)S(=O)(=O)c1cn(C)cn1 16[16.7_µM] 0
C[C@@H]1CN([C@H](C)CO)C(=O)c2cc(-c3cccc(C(=O)N(C)C)c3)cnc2O[C@@H]1CN(C)C(=O)Cc1ccccn1 -18[16.7_µM] -5
CC(=O)N(C)C[C@H]1Oc2ncc(-c3ccc(C#N)cc3)cc2C(=O)N([C@H](C)CO)C[C@H]1C 8[16.7_µM] 1
O=C(C[C@H]1CC[C@H](NC(=O)C2CCC2)[C@@H](CO)O1)Nc1nccs1 -4[16.7_µM] -20
C[C@@H]1CN([C@@H](C)CO)S(=O)(=O)c2ccc(C3=CCCC3)cc2O[C@@H]1CN(C)C(=O)CN(C)C 2[16.7_µM] -4
CO[C@H]1CN(C)C(=O)c2ccc(NC(=O)C3CC3)cc2OC[C@@H](C)N(CCc2ccccc2)C[C@@H]1C -12[16.7_µM] 1
CNC[C@@H]1OCCCC[C@H](C)Oc2ccc(NC(=O)Nc3ccc(OC)cc3)cc2C(=O)N([C@H](C)CO)C[C@H]1C -6[16.7_µM] 14
C[C@@H]1CN([C@@H](C)CO)C(=O)Cc2cc(NS(=O)(=O)c3ccccc3)ccc2O[C@@H]1CN(C)Cc1ccc(Oc2ccccc2)cc1 -17[16.7_µM] 4
COc1ccc([Si](C)(C)[C@@H]2[C@@H](CCO)O[C@]3(C(=O)N(Cc4cccc(N5CCOC5=O)c4)c4ccccc43)[C@H]2C)cc1 ? -7
CC(C)CC#Cc1cnc2c(c1)C(=O)N([C@H](C)CO)C[C@@H](C)[C@H](CN(C)S(=O)(=O)c1ccccc1)O2 14[16.7_µM] 12
C[C@@H]1CN([C@H](C)CO)S(=O)(=O)c2ccc(/C=C/c3ccccc3)cc2O[C@@H]1CN(C)Cc1cccnc1 3[16.7_µM] -20
Other records follow.
SMILES HIV_Env_fusion UUG_fidelity
C[C@H]1CCCCO[C@@H](CN(C)C(=O)Cc2ccccc2)[C@@H](C)CN([C@@H](C)CO)C(=O)c2cc(NS(=O)(=O)c3ccc(Cl)cc3)ccc2O1 38[16.7_µM] -4
CNC[C@@H]1OCCCC[C@@H](C)Oc2ccc(NC(=O)c3ccncc3)cc2C(=O)N([C@@H](C)CO)C[C@H]1C 8[16.7_µM] 4
COc1ccc(CNC(=O)C[C@@H]2CC[C@H](NC(=O)c3cccc(F)c3)[C@H](CO)O2)cc1 -9[16.7_µM] 0
C[C@@H]1CN([C@H](C)CO)C(=O)c2cc(NS(=O)(=O)c3ccc(Cl)cc3)ccc2O[C@@H](C)CCCCO[C@H]1CN(C)Cc1ccc(C(F)(F)F)cc1 35[16.7_µM] 6
Cc1ccccc1-c1cnc2c(c1)C(=O)N([C@H](C)CO)C[C@H](C)[C@@H](CN(C)C(=O)c1cccnc1)O2 6[16.7_µM] -6
CC(C)C#Cc1ccc([C@@H]2[C@@H](C#N)N(C(=O)CN(C)C)[C@@H]2CO)cc1 2[16.7_µM] 5
C[C@@H]1CN([C@@H](C)CO)C(=O)Cc2cc(NC(=O)c3ccncc3)ccc2O[C@H]1CN(C)CC1CC1 14[16.7_µM] 2
CC(=O)N[C@H]1CC[C@H](CC(=O)NCc2ccc(Cl)cc2)O[C@@H]1CO 3[16.7_µM] -9
COc1ccc(S(=O)(=O)N(C)C[C@@H]2Oc3c(NS(=O)(=O)c4ccc(Cl)cc4)cccc3C(=O)N([C@H](C)CO)C[C@@H]2C)cc1 -16[16.7_µM] -13
CCNC(=O)C[C@@H]1C=C[C@H](NC(=O)C2CCOCC2)[C@@H](CO)O1 6[16.7_µM] -8
Cc1noc(C)c1NC(=O)Nc1ccc2c(c1)CC(=O)N([C@H](C)CO)C[C@H](C)[C@H](CN(C)C(=O)Nc1ccc3c(c1)OCO3)O2 -12[16.7_µM] 9
COc1cccc(-c2cnc3c(c2)C(=O)N([C@@H](C)CO)C[C@H](C)[C@H](CN(C)Cc2ccc(C(=O)O)cc2)O3)c1 1[16.7_µM] -4
C[C@@H]1CN([C@@H](C)CO)S(=O)(=O)c2ccc(C#CCC3CCCC3)cc2O[C@H]1CN(C)C(=O)CC1CC1 43[16.7_µM] 45
C[C@@H]1CN([C@@H](C)CO)C(=O)c2cc(NC(=O)CCC(F)(F)F)ccc2O[C@@H]1CN(C)S(C)(=O)=O -2[16.7_µM] -2
COc1ccc(NC(=O)N(C)C[C@@H]2Oc3c(NC(=O)Nc4ccccc4)cccc3C(=O)N([C@H](C)CO)C[C@@H]2C)cc1 -17[16.7_µM] 7
O=C(C[C@H]1C[C@@H]2c3cc(NS(=O)(=O)c4ccc(F)cc4)ccc3O[C@@H]2[C@H](CO)O1)NCc1cccc(F)c1 54[16.7_µM] 6
C[C@@H]1CN([C@@H](C)CO)S(=O)(=O)c2ccc(C#CC3CCCCC3)cc2O[C@@H]1CN(C)C -10[16.7_µM] -24
C[C@@H]1CN([C@@H](C)CO)C(=O)c2cc(-c3ccccc3)cnc2O[C@@H]1CN(C)C(=O)Cc1ccccn1 4[16.7_µM] -20
O=C(Nc1ccc2c(c1)[C@@H]1C[C@@H](CC(=O)N3CCc4ccccc4C3)O[C@H](CO)[C@@H]1O2)Nc1ccccc1F 1[16.7_µM] 7
CCCC#Cc1ccc2c(c1)O[C@@H](CN(C)Cc1ccccn1)[C@@H](C)CN([C@H](C)CO)S2(=O)=O -30[16.7_µM] -8

Ordered by count of non-hydrogen atoms (low to high): 9 of the compounds above.
SMILES HIV_Env_fusion UUG_fidelity
CC(=O)N[C@H]1CC[C@H](CC(=O)NCc2ccc(Cl)cc2)O[C@@H]1CO 3[16.7_µM] -9
C[C@@H]1CN([C@@H](C)CO)S(=O)(=O)c2ccc(C#CC3CCCCC3)cc2O[C@@H]1CN(C)C -10[16.7_µM] -24
CCCC#Cc1ccc2c(c1)O[C@@H](CN(C)Cc1ccccn1)[C@@H](C)CN([C@H](C)CO)S2(=O)=O -30[16.7_µM] -8
C[C@@H]1CN([C@@H](C)CO)C(=O)Cc2cc(NC(=O)c3ccncc3)ccc2O[C@H]1CN(C)CC1CC1 14[16.7_µM] 2
C[C@@H]1CN([C@@H](C)CO)S(=O)(=O)c2ccc(C#CCC3CCCC3)cc2O[C@H]1CN(C)C(=O)CC1CC1 43[16.7_µM] 45
O=C(C[C@H]1C[C@@H]2c3cc(NS(=O)(=O)c4ccc(F)cc4)ccc3O[C@@H]2[C@H](CO)O1)NCc1cccc(F)c1 54[16.7_µM] 6
COc1cccc(-c2cnc3c(c2)C(=O)N([C@@H](C)CO)C[C@H](C)[C@H](CN(C)Cc2ccc(C(=O)O)cc2)O3)c1 1[16.7_µM] -4
COc1ccc(S(=O)(=O)N(C)C[C@@H]2Oc3c(NS(=O)(=O)c4ccc(Cl)cc4)cccc3C(=O)N([C@H](C)CO)C[C@@H]2C)cc1 -16[16.7_µM] -13
Cc1noc(C)c1NC(=O)Nc1ccc2c(c1)CC(=O)N([C@H](C)CO)C[C@H](C)[C@H](CN(C)C(=O)Nc1ccc3c(c1)OCO3)O2 -12[16.7_µM] 9

From PubChem BioAssay
